Bioassay records from PubChem.
GIRK2 act: activators of human GIRK2 potassium channels; G protein-activated inward rectifier potassium channel 2 (Homo sapiens), P48051; HEK293-GIRK2 thallium flux, Thallos fluorescence; calls only for hits at 25 µM; 0.05% of 63,000 active; AID 1259325, 2017;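 active means among the strongest 0.2% of first-round signals and kept after retests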;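 further: first round at about 10 µM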
Target sequence (P48051 whole entry, looked up): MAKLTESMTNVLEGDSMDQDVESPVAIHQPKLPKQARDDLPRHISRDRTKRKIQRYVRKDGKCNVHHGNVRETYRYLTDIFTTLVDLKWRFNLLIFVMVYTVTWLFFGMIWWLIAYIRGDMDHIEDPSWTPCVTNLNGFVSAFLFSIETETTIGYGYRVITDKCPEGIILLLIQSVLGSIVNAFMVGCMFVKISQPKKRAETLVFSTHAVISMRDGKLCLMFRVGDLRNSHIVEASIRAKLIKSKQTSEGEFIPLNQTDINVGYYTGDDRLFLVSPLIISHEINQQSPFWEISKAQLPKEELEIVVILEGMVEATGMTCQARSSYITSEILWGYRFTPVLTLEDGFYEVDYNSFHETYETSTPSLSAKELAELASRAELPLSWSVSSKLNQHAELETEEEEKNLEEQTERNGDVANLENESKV
Calls only; i = inactive. These rows are one share of the data. The share of hits here may be higher or lower than overall.

SMILES	GIRK2 act
CC(=O)Nc1ccc(CC(=O)Nc2c(N)[nH]c(=O)n(Cc3ccccc3F)c2=O)cc1	i
O=C(NCCCn1ncccc1=O)c1ccc(Cl)cc1	i
COc1ccc(-n2c(=O)c3ccccc3n(CC(=O)NC3CCCC3)c2=O)cc1	i
COc1ccc(NC(=O)Cn2cnc3c(-c4ccc(F)cc4)csc3c2=O)cc1Cl	i
Cc1ccc(NC(=O)c2ccc(-c3ccccc3)cc2)cc1N1CCCC1=O	i
O=C(c1ccc2nc[nH]c2c1)N1CCC(c2nnc(-c3ccc(F)cc3)o2)CC1	i
COc1ccccc1/C=C1\SC(=O)N(CC(=O)Nc2ccc(O)c(C(=O)O)c2)C1=O	i
COc1ccccc1CCNC(=O)CN1CCN(c2ccc(C)cc2)C1=O	i
Cc1ccccc1C(=O)N1CC(Oc2nc3ccccc3s2)C1	i
COc1ccc(C)cc1N1CCCn2c1nc1c2c(=O)n(CC(C)=O)c(=O)n1C	i
CCOC(=O)c1c(S(=O)(=O)NCc2ccc(F)cc2Cl)n[nH]c1CC	i
CC(C)c1cnc2c(c1SCC(=O)NC1CCCC1)c(=O)n(C)c(=O)n2C	i

Three records drawn at random from the list so far, as already listed:
SMILES	GIRK2 act
COc1ccc(C)cc1N1CCCn2c1nc1c2c(=O)n(CC(C)=O)c(=O)n1C	i
O=C(NCCCn1ncccc1=O)c1ccc(Cl)cc1	i
COc1ccc(-n2c(=O)c3ccccc3n(CC(=O)NC3CCCC3)c2=O)cc1	i

Continued:
SMILES	GIRK2 act
O=C(CSc1nnc(N2CCN(c3ccc(F)cc3)CC2)s1)N1CCN(c2ccccc2)CC1	i
O=C(c1ccc2nsnc2c1)N1CCC(Oc2cnccn2)CC1	i
COc1ccc(/C(C)=N\Nc2nc3c(c(=O)n(C)c(=O)n3C)n2CC(O)COC(C)C)cc1 (configuration not stated)	i
CCn1c(SCC(=O)Nc2cc(Cl)ccc2OC)nc2c(-c3ccccc3)c[nH]c2c1=O	i
Cc1nc(-c2ccccc2Cl)sc1CNC(=O)Cc1noc2ccccc12	i
O=C1NC(=NCc2cccs2)O/C1=C\c1ccc2ncccc2c1	i
CC(=O)c1cccc(Nc2c(C(=O)N3CCCC(C)C3)cnc3nc(C)ccc23)c1 (configuration not stated)	i
CCOC(=O)CNC(=O)CN1C(=O)CC(c2ccc(OC)cc2)Sc2ccccc21 (configuration not stated)	i
COc1ccc(S(=O)(=O)Nc2ccc(CN3CCN(c4ccccn4)CC3)cc2)cc1	i
Cc1cc(OCC(=O)Nc2ccccc2)nc(N2CCCC2)n1	i
Cc1cn2c3c(=O)n(C)c(=O)n(C)c3nc2n1CCCNc1ccc(F)cc1	i
COc1ccc(NC(=O)Cn2cnc3c(c2=O)CCCC3)c(OC)c1	i
O=C(NCC1CCC(c2nc3ccccc3[nH]2)CC1)c1cc2ccccc2[nH]1 (configuration not stated)	i
CCOCCn1c(CCCO)nc2ccccc21	i
O=C(NCCOc1ccc(F)cc1)c1cc(-c2ccccc2)n[nH]1	i
Cc1cc(Br)ccc1NC(=O)c1cc2cc([N+](=O)[O-])ccc2oc1=O	i
COC(=O)c1ccc2nc(NC(=O)Nc3cc(Cl)ccc3OC)sc2c1	i
COc1cccc(CC(=O)NCCC(O)c2cccc3ccccc23)c1 (configuration not stated)	i
CCOc1ccc(NC(=O)Cn2c(-c3ccc(C)cc3)ncc(C#N)c2=O)cc1	i
Cc1ccc(S(=O)(=O)N(C)c2cc(S(=O)(=O)N(C)c3ccccc3C)c(C)cc2C)cc1	i
CC(C)Sc1ccc(CC(=O)NCC2(c3ccc(F)cc3)CC2)cc1	i
Cc1c(NC(=O)N(C)c2ccccc2)c(=O)n(-c2ccccc2)n1C	i
O=C(Cc1cccs1)NNC(=O)c1cccn(Cc2ccc(F)cc2)c1=O	i
CCOC(=O)N1CCN(C(=O)Nc2nc(CC(=O)Nc3ccc(F)c(F)c3)cs2)CC1	i
O=C(NCC(F)(F)F)C1CCN(C(=O)CCn2ccc(=O)[nH]c2=O)CC1	i
O=C(NCCc1ccccc1)N1CCC(COCc2ccc(F)cc2)CC1	i
CCOc1ccc(S(=O)(=O)NCC2CCN(C)CC2)cc1F	i
O=C(c1cc(Cl)sc1Cl)N(CC1CCCO1)c1nc2c(F)cc(F)cc2s1 (configuration not stated)	i
COc1ccc2c(=O)c3c(oc2c1)C(=O)N(CCN(C)C)C3c1ccccc1OC (configuration not stated)	i
CCNc1cc(NCCNC(=O)c2ccccc2C(F)(F)F)nc(C)n1	i
O=C(Nc1nc(-c2cc3ccccc3o2)cs1)c1cccc(S(=O)(=O)N2CCOCC2)c1	i
O=C(Nc1cccs1)N1CCCC(c2nnc(-c3ccc4c(c3)OCO4)o2)C1 (configuration not stated)	i
O=C(N1CCC2(CC1)OCCS2)C1(c2ccc(F)cc2)CC1	i
CN(C)S(=O)(=O)c1ccc(C(=O)NCC2CCN(C(=O)c3ccoc3)CC2)cc1	i
O=C(OC1CCCCC1)c1cc2cc([N+](=O)[O-])ccc2oc1=O	i
O=C(Nc1cccs1)Nc1nc2c(Br)cccc2s1	i
O=C(NCc1ccc(Cl)cc1)N1CCC(COCc2ccccc2)CC1	i
CC1Oc2ccccc2OC1C(=O)Nc1cc(OCc2ccc3c(c2)OCO3)ncn1 (configuration not stated)	i
O=C(c1ccc(-n2cccn2)nn1)N1CCN(CCc2ccccc2)CC1	i
Cc1ccc(C(C)NC(=O)Cn2c(C)nc3c(c2=O)CN(Cc2ccccc2)CC3)cc1 (configuration not stated)	i
CS(=O)(=O)C1CCN(C(=O)c2ccco2)CC1	i
O=C(NCC1(c2cccs2)CCOCC1)C(=O)Nc1cccnc1	i
Cc1ccc(C(=O)Nc2nn[nH]n2)cc1S(=O)(=O)N1CCOCC1	i
Cc1ccc(Oc2nccn3c(=O)n(CC(=O)Nc4ccc(F)cc4F)nc23)cc1	i
N#Cc1ccc(Cl)cc1NC(=O)C(=O)NCc1ccco1	i
CC1N=C2c3ccccc3N=C(SCC(=O)Nc3cccc(Cl)c3)N2C1=O (configuration not stated)	i
Cc1n[nH]c(C)c1S(=O)(=O)N1CCC(c2nnc(C3CC3)s2)CC1	i
CC1=C(C(N)=O)C(c2cccc([N+](=O)[O-])c2)NC(=S)N1 (configuration not stated)	i
CCCNC(=O)C1CCC(Cn2c(=O)c3sccc3n(CC(=O)Nc3ccc(C)cc3)c2=O)CC1 (configuration not stated)	i
O=C(CCc1nc2sc3c(c2c(=O)[nH]1)CCCCC3)Nc1ccc(F)cc1F	i
COc1ccc(CC(=O)N2CCN(c3cc(-n4cccn4)nc(C)n3)CC2)cc1	i
CCCc1nnsc1C(=O)NCCC(O)C(C)(C)C (configuration not stated)	i
CCC(C(=O)Nc1cnc(OC)nc1)c1ccccc1 (configuration not stated)	i
Cc1nccn1-c1cc(N2CCN(C(=O)COc3ccc(Cl)cc3Cl)CC2)ncn1	i
Cc1cccnc1NC(=O)C1CCN(c2ccc(=O)n(C)n2)CC1	i
CCN(CC)C(=O)CSc1nc2c(-c3ccccc3)c[nH]c2c(=O)n1C1CC1	i
N#Cc1ccc(OC2CCN(C(=O)c3cnc4ccccc4n3)CC2)nc1	i
CCC(C)n1c(C)cn2c3c(=O)n(CCC(=O)OC)c(=O)n(C)c3nc12 (configuration not stated)	i
Cc1ccc2nc(C3CN(C(=O)C(C)(C)C)C3)[nH]c2c1	i
Cc1ccccc1OCC(=O)OC1CN(c2nc3ccc(F)cc3s2)C1	i

(more compounds)
SMILES	GIRK2 act
CCOc1ccc2ccccc2c1C(=O)N1CCN(Cc2ccsc2)CC1	i
Cc1ccc(NCCNC(=O)Nc2cccc(C(F)(F)F)c2)nn1	i
O=C(Cc1ccc(F)cc1)NC1CC(=O)N(C2CC2)C1 (configuration not stated)	i
Cc1cc(C)cc(-n2c(=O)c3ccccc3n(Cc3cc(=O)n4ccccc4n3)c2=O)c1	i
O=C(Cn1nc(N2CCCCC2)c2ccccc2c1=O)Nc1ccc(Cl)cc1	i
COc1ccc2nc(N(CCN3CCOCC3)C(=O)c3cc4cc([N+](=O)[O-])ccc4s3)sc2c1	i
CCN1C(=O)C(C)(C)COc2cc(NC(=O)Nc3cc(OC)cc(OC)c3)ccc21	i
CCCCCCCCCCCCCCNC(=O)C1CCCCC1	i
O=C(Cc1ccccc1)Nc1ccc(-n2nnc(C(=O)NC3CCCC3)n2)cc1	i
COc1ccc2c(c1)c(=O)c(S(=O)(=O)c1ccc(C)cc1)cn2CC(=O)Nc1ccccc1C	i
Cc1ccn(CC(C)N2Cc3cc(Br)ccc3OCC2=O)n1 (configuration not stated)	i
COC(=O)c1ccc(S(=O)(=O)N2CCC(Oc3ncccc3Cl)CC2)cc1	i

At a glance, four of the compounds above.
SMILES	GIRK2 act
CC(=O)Nc1ccc(CC(=O)Nc2c(N)[nH]c(=O)n(Cc3ccccc3F)c2=O)cc1	i
O=C(NCCCn1ncccc1=O)c1ccc(Cl)cc1	i
COc1ccc(-n2c(=O)c3ccccc3n(CC(=O)NC3CCCC3)c2=O)cc1	i
COc1ccc(NC(=O)Cn2cnc3c(-c4ccc(F)cc4)csc3c2=O)cc1Cl	i

Further structures follow.
SMILES	GIRK2 act
COC1(CNC(=O)c2ccc3nsnc3c2)CCSC1 (configuration not stated)	i
COc1ccc(CCS(=O)(=O)NCc2cc(C)oc2C)cc1	i
Cc1cc(NC(=O)COc2ccc(F)cc2)n(-c2nc(-c3ccc(F)cc3)cs2)n1	i
COC(=O)c1cc(OC)c(OC)cc1NC(=O)C1=Cc2cc(Cl)cc(OC)c2OC=C1	i
COc1ccc(-c2cnc(CNS(=O)(=O)c3cccs3)[nH]2)cc1	i
CCCc1nnsc1C(=O)N1CCC(Cn2ccnc2CC)CC1	i
CC(O)(CNC(=O)Nc1ccc(Cl)c(Cl)c1)c1ccco1 (configuration not stated)	i
CSc1ccc(-c2noc(Cc3nnc(-c4cccc(Br)c4)o3)n2)cc1	i
Cn1cc(OCc2ccccc2)c(=O)cc1C(=O)N1CCN(c2cccc(C(F)(F)F)c2)CC1	i
Cc1cccc(S(=O)(=O)N2CCN(c3ccccc3F)CC2)c1	i
COc1ccc(-c2nc(C#N)c(N3CCN(C(=O)c4ccccc4OC)CC3)o2)cc1OC	i
O=C(Nc1ccc(-c2ccn[nH]2)cc1)c1cnccn1	i

Next part; it opens with the three that closed the last part.
SMILES	GIRK2 act
Cc1cccc(S(=O)(=O)N2CCN(c3ccccc3F)CC2)c1	i
COc1ccc(-c2nc(C#N)c(N3CCN(C(=O)c4ccccc4OC)CC3)o2)cc1OC	i
O=C(Nc1ccc(-c2ccn[nH]2)cc1)c1cnccn1	i
COc1ccccc1-n1ccn2cc(-c3ccc(Br)cc3)nc2c1=O	i
CN1CCN(NC(=O)C2COCC(=O)N2Cc2cccs2)CC1 (configuration not stated)	i
O=C(c1ccc(Br)o1)N1CC(Oc2nc3c(Cl)cccc3s2)C1	i
CCCCCNC1=C(c2cn(C)c3ccccc23)C(=O)N(C)C1=O	i
O=c1ccc(-c2nc(-c3cnccn3)no2)cn1Cc1noc(-c2ccco2)n1	i
Cn1c(=O)c2cc(C(=O)Nc3ccc4c(c3)OCCO4)n(Cc3ccccc3)c2n(C)c1=O	i
O=C(Nc1cnc(-n2ccnc2)nc1)C1CCCC1	i
CCOC(=O)c1cccc(Nc2c(C(=O)N3CCCC3)cnc3nc(C)ccc23)c1	i
CCOC(=O)c1cccc(Nc2cc(C(=O)N3CCSCC3)nc3ccccc23)c1	i
COc1cccc(-c2nc(Cn3cc(-c4nc(-c5ccsc5)no4)ccc3=O)no2)c1	i
O=C(Oc1ccc2c(c1)O/C(=C\c1cccnc1)C2=O)c1ccc([N+](=O)[O-])cc1	i
Cc1noc(C)c1S(=O)(=O)N1CCC(c2nnc(-c3ccco3)s2)CC1	i
CSc1ccc(/C=C2/C(C)=C(CC(=O)NCc3ccc(C(=O)c4ccccc4)cc3)c3cc(F)ccc32)cc1	i
CC(=O)c1cccc(NC(=O)Cn2ccn3nc(-c4ccc(C)cc4)cc3c2=O)c1	i
O=C(c1cnccn1)N1CCN(Cc2nc3ccccc3n2Cc2ccccc2)CC1	i
Cn1nc(C(=O)Nc2nccs2)ccc1=O	i
O=C(c1cc2cc(Cl)ccc2[nH]1)N1CCN(Cc2nncn2C2CCCCC2)CC1	i
Cc1cccc(OCC(O)Cn2cnc3c2c(=O)n(C)c(=O)n3C)c1 (configuration not stated)	i
O=C(c1ccc2nsnc2c1)N1CCC(Oc2ncccc2Cl)CC1	i
O=C(NC1CCN(C(=O)c2cc(-c3ccc(Cl)cc3)n[nH]2)CC1)c1ccco1	i
CC(=O)c1cccc(NS(=O)(=O)N2CCC(C)CC2)c1	i
COc1ccc(NC(=O)NCCNc2cc(Nc3ccccn3)ncn2)c(C)c1	i
COC(=O)Nc1nc(CC(=O)NCc2nc3ccccc3[nH]2)cs1	i
Cn1cccc1C(CNC(=O)C(=O)Nc1cccc(N2CCCC2=O)c1)N1CCOCC1 (configuration not stated)	i
Cc1noc(-c2ccc(N3CCCC(C(=O)NC(C)c4cccs4)C3)nc2)n1 (configuration not stated)	i
O=C(CSc1nnc(N2CCN(c3ccc(F)cc3)CC2)s1)Nc1ccccc1C(F)(F)F	i
COc1ccccc1N1CCN(C(=O)Cn2ccn3nc(-c4ccc(Cl)cc4)cc3c2=O)CC1	i
COc1ccc(OCCCn2c(=O)oc3ccc(C)cc32)cc1	i
COc1cccc2cc(C(=O)NCCc3nc(C)cc(C(F)(F)F)n3)oc12	i
CCn1c(SCC(=O)Nc2ccc(OC)c(OC)c2)nc2c3cc(OC)ccc3n(C)c2c1=O	i
O=C(CN1CCN(c2ccc(F)cc2)C1=O)Nc1ccc(-n2cnnn2)cc1	i
COc1ccccc1C1(CNC(=O)c2ccc(Br)o2)CCOCC1	i
